# Bioassay records (PubChem BioAssay)
# NPYLR7 agonist: mosquito NPYLR7 agonism; 270,000 compounds, 0.15% hits; activation, % at 10 µM; HEK293T NPYLR7/Galpha15, GCaMP6s calcium fluorescence; in the data active means activation above about 40%;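 further: 0% = vehicle and 100% = reference agonist at the receptor; some compounds past the cut are filed as inactive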
# NPYLR7 agonist max-min: second read-out of NPYLR7 agonist, no call of its own (marks repeat the call); activation, %; measured here: Max-Min RFU normalised activation; some inactives read as strong as hits;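 span of the calcium signal over five minutes; 0% = vehicle and 100% = native peptide agonist; compound fluorescence can raise it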
# * marks the source's active call; other numbers are inactive results; & = joins results of further samples. This is a subset, so the mix of outcomes need not match the whole.
# Each structure is followed by: NPYLR7 agonist, NPYLR7 agonist max-min
- CCCN(CCC)C(=O)c1cc(-c2ccccc2OC)n2nc(C(C)(C)C)cc2n1
    1, 7
- COc1ccc(-c2csc(-n3nc(C)cc3NC(=O)Cc3cccs3)n2)cc1OC
    -8, -12
- CC(C)n1cnn(CN2CCN(S(=O)(=O)c3ccccc3)CC2)c1=S
    8, 6
- CCc1ncc(CN(C)Cn2c3c(sc2=O)CC(C)CC3)s1 (stereo not given)
    1, 1
- CC(C)c1nccn1CCCNC(=O)c1ccc(N(C)C)nc1
    2, 0
- CCOC(=O)C1C(c2ccc(Cl)cc2)n2nc(C(F)(F)F)nc2NC1(C)O (stereo not given)
    10, 10
- CC(C)(C)c1ccc(CC(=O)N2CCC2(C)C(=O)NS(=O)(=O)c2cccc(OC(F)F)c2)cc1 (stereo not given)
    6, 3
- Cc1cnc(C)c(-c2cc(O)c3c(c2)CN(Cc2c(C)n[nH]c2C)CCO3)n1
    5, 3
- CCCc1nnc(NC(=O)C23CC4CC(CC(C)(C4)C2)C3)s1
    -10, -13
- COC(=O)c1ccc(NC(=O)NC2CCCN(C3CCCCCC3)C2)cc1 (stereo not given)
    8, 3
- Cc1cc(C(=O)N2CCN(Cc3cc(=O)c(OCc4ccc(-c5ccccc5C#N)cc4)co3)CC2)cc(Cl)n1
    9, 7
- CC1=CC(C(F)(F)F)(C(F)(F)F)C(C#N)C(=N)N1c1ccc(C(F)(F)F)cc1 (stereo not given)
    -4, -10
- O=C(Cn1cnc([N+](=O)[O-])n1)Nc1ccc(Cl)cc1Cl
    -3, -9
- COc1ccc(CC2(CCC(=O)N(C)Cc3ccccc3C(F)(F)F)CCC(=O)N2)c(F)c1 (stereo not given)
    18, 4
- Cc1cccnc1CN(C)C(=O)CCc1nc2ccccc2[nH]c1=O
    9, 8
- COCc1nc(CN2CCC(O)(c3ccc(C)cn3)CC2)no1
    20, 2
- O=C(O)CN1C(=O)/C(=C\c2cccc(OCc3ccc(Cl)cc3Cl)c2)SC1=S
    19, 30
- CCOC(=O)c1ccc(-n2c(C)cc(/C=N\NC(=O)COc3cccc4cccnc34)c2C)cc1
    10, 18
- O=S(=O)(N(c1ccccc1)S(=O)(=O)C(F)(F)F)C(F)(F)F
    -2, -6
- c1cc(CCNc2ccn3nccc3n2)ccn1
    1, -1
- O=S(=O)(c1cccc(C(F)(F)F)c1)N1CCc2nc(-c3ccccc3)nc(N3CCCCC3)c2C1
    0, 0
- CCOc1ccc(C(=O)Nc2ccc(-c3nc4cc(C)c(C)cc4o3)cc2)cc1
    -2, -5
- OC(CNCC1CCCCC1)COc1ccccc1 (stereo not given)
    0, -4
- CCCCC(=O)Nc1c(-c2ccc(OC)cc2)nc2cc(C)ccn12
    -1, 2
- S=c1n(CN2CCCC2c2ccc3c(c2)OCCO3)nc2n1CCCCC2 (stereo not given)
    8, 14
- COc1ccc(/C=C2\C=C(c3ccccc3)N(c3ccc(Br)cc3C)C2=O)cc1Br
    0, 5
- NC(=O)COc1coc(CN2CCN(c3ccccc3)CC2)cc1=O
    1, -1
- Cc1ccccc1-n1c(Cc2ccccc2)nnc1SCc1ccccn1
    -1, 13
- COc1ccc(Cc2ncc3c(n2)CN(Cc2cc4n(n2)CCNC4)C3)cc1
    11, 6
- CCc1ncc2c(n1)CN(C(=O)c1ccc3c(c1)OCC(=O)N3)C2
    23, 7
- Cc1cc(C)c(C#N)c(Nc2ccccc2Cl)n1
    -3, -4
- COC(=O)CCC(=O)N1CCCC(CCC(=O)Nc2cc(OC)cc(OC)c2)C1 (stereo not given)
    3, 1
- O=C(NCc1ccccc1F)c1cc2n(n1)CCN(Cc1ccc(Cl)cc1)C2=O
    23, 9
- CC(C)C(NS(=O)(=O)c1ccc(Cl)cc1)C(=O)NNC(=O)c1ccco1 (stereo not given)
    1, -2
- COc1cc(C)sc1C(=O)N1CCc2c(cccc2NC(C)=O)C1
    13, 10
- CCOC(=O)c1cc(-c2cccc(NC(=O)c3cc(C)nn3C)c2)n(-c2ccccc2F)n1
    24, 13
- Cc1ccc(S(=O)(=O)NCCc2nnc3ccc(SCC(N)=O)nn23)cc1
    5, -3
- N#Cc1cc2c([nH]c1=S)CCCC2
    1&3, 11&5
- N#CC(=Cc1cccs1)C(=O)Nc1nccs1
    2, 0
- CNC(=O)c1ccc(C2CCCN2S(=O)(=O)NCc2ccccc2)s1 (stereo not given)
    2, 4
- COC(=O)CC1CSCCN1C(=O)CCc1ccco1 (stereo not given)
    9, 8
- Cc1ccccc1Oc1cc(N2CCN(C(=O)C(C)Cl)C(C)C2)ncn1 (stereo not given)
    -8, -3
- Nc1nc(SCC(=O)Nc2ccccc2F)[nH]c(=O)c1NC(=O)c1ccc(F)cc1
    -5, -7
- O=C(CCC1CCCC1)N1CCc2c([nH]c3ccccc23)C1c1ccc([N+](=O)[O-])c(Cl)c1 (stereo not given)
    -22, -29
- Cc1sc2ncnc(NCc3nnc4c(Cl)cc(C(F)(F)F)cn34)c2c1C
    -1, 8
- O=C(Cn1cnc2sccc2c1=O)N1CCN(C(=O)c2cccs2)CC1
    4, 0
- COc1cccc(NC(=O)O[C@@H]2CC[C@]3(C)C(CC[C@@H](O)[C@H]3CC(=O)NCc3ccc4c(c3)OCO4)[C@]2(C)CO)c1 (stereo not given in full)
    -6, -12
- COCCCNCC(=O)N(Cc1ccc(F)cc1)Cc1sccc1C
    3, 4
- Cc1c(Cl)ccc(S(=O)(=O)NCCCN2CCOCC2)c1Cl
    14, 14
- N#Cc1cccc(C(=O)N2CCOC(COCc3ccc(F)cc3Cl)C2)c1 (stereo not given)
    20, 12
- COc1ccccc1OC1CN(C(=O)C=C(C)C)C1
    3, 2
- CO[C@H]1CN(c2nccc(CCC(F)(F)F)n2)CC[C@H]1N
    23, 16
- CC(C)OCCN1CC2COCC(C1)C2NC(=O)c1cccc(Cl)c1 (stereo not given)
    28, 16
- COCCN(CC(=O)N(CCc1ccccc1)Cc1ccco1)C(=O)c1ccc(Cl)c([N+](=O)[O-])c1
    -4, 7
- CCOc1ccccc1-c1cncc(NC)n1
    1, 0
- Cc1cc(-c2nn3c(CN4CCOCC4)nnc3s2)no1
    10, 7
- O=C1CC(C(=O)N2CCC3(CC2)OCCCO3)CN1Cc1cccs1 (stereo not given)
    5, 5
- S=C(NCCc1ccccc1)NC1CCSc2ccccc21 (stereo not given)
    4, 6
- CSc1sc(C(=O)O)c(Cl)c1S(=O)(=O)C(C)C
    2, -2
- Cc1ccc(-n2nnnc2SCc2cn3ccccc3n2)cc1
    9, 3

# More structures:
# Each structure is followed by: NPYLR7 agonist, NPYLR7 agonist max-min
- Cc1ccc(-c2cc(C(F)(F)F)n3ncc(C(=O)NCCc4c[nH]c5ccccc45)c3n2)cc1
    -10, -17
- O=C(CN1CCc2onc(-c3ccccc3F)c2C1)NCc1ccccn1
    19, 7
- CC(=O)N(c1nc(C=C2N=C(c3cccc(Cl)c3)OC2=O)cs1)c1ccccc1F
    4, 38
- Cc1c(CN2CCOc3ccc(C(O)C(c4ccccc4)c4ccccc4)cc3C2)cnn1C (stereo not given)
    17, 4
- CCCCNC(=O)N1CCC2(CC1)N=CC1(CCCCC1)S2
    22, 20
- Cc1noc(C)c1C=CC(=O)O
    3, 13
- Cc1ccccc1-n1c(SCc2ccc(C(=O)NCC(C)C)cc2)nnc1-c1ccccc1Cl
    15, 14
- CCN(Cc1nc(COC)no1)Cc1ccnc2ccccc12
    -8, -14
- CCn1c2ccccc2c2cc(NC(=O)Cn3c4ccccc4c(=O)c4ccccc43)ccc21
    -6, -7
- COc1cc(C)ccc1S(=O)(=O)Nc1ccccc1C(=O)NCc1ccc(Cl)cc1
    2, 14
- CC(NC(=O)Cc1ccccn1)c1cnn(-c2ccccc2F)c1 (stereo not given)
    23, 15
- COCc1nc(N(C)Cc2ccc3nonc3c2)c2cnn(C)c2n1
    4, 1
- Cn1nc(CC2CCN(C(=O)Cn3cncn3)CC2)n(-c2ccccc2)c1=O
    4, 3
- CC(C)N(C)CC1CN(C(=O)c2cccs2)CC1c1cccc(F)c1 (stereo not given)
    3, 5
- COc1ncccc1NC(=O)N(C)C1CCC(c2ccccc2)CC1 (stereo not given)
    1, 0
- Cc1cccc(CN(C(=O)C2CCCC2)c2ccc(CC(=O)O)cc2)c1
    3, 1
- COC(=O)[C@@H](NC1CCN(c2ccc(NC(=O)c3ccc(C)cc3C)cc2)CC1)C(C)C
    3, -3
- CCCCS(=O)(=O)N1CCCN(c2nc(CCC(C)C)nc3c2cnn3-c2cccc(Cl)c2)CC1
    10, 14
- Cc1ccccc1NC(=O)CN1C(=O)NC2(CCOc3ccccc32)C1=O (stereo not given)
    -9, -12
- O=C(O)C1C2CCC(C2)C1C(=O)Nc1nccs1 (stereo not given)
    3, 0

# Of the compounds above, these contain a CF3 group.
# Each structure is followed by: NPYLR7 agonist, NPYLR7 agonist max-min
- CCOC(=O)C1C(c2ccc(Cl)cc2)n2nc(C(F)(F)F)nc2NC1(C)O (stereo not given)
    10, 10
- CC1=CC(C(F)(F)F)(C(F)(F)F)C(C#N)C(=N)N1c1ccc(C(F)(F)F)cc1 (stereo not given)
    -4, -10
- COc1ccc(CC2(CCC(=O)N(C)Cc3ccccc3C(F)(F)F)CCC(=O)N2)c(F)c1 (stereo not given)
    18, 4
- O=S(=O)(N(c1ccccc1)S(=O)(=O)C(F)(F)F)C(F)(F)F
    -2, -6
- O=S(=O)(c1cccc(C(F)(F)F)c1)N1CCc2nc(-c3ccccc3)nc(N3CCCCC3)c2C1
    0, 0
- Cc1sc2ncnc(NCc3nnc4c(Cl)cc(C(F)(F)F)cn34)c2c1C
    -1, 8
- CO[C@H]1CN(c2nccc(CCC(F)(F)F)n2)CC[C@H]1N
    23, 16
- Cc1ccc(-c2cc(C(F)(F)F)n3ncc(C(=O)NCCc4c[nH]c5ccccc45)c3n2)cc1
    -10, -17

# Additional compounds
# Each structure is followed by: NPYLR7 agonist, NPYLR7 agonist max-min
- O=C(Cc1ccc(N2CCNC2=O)cc1)N1CCOC(Cc2ccccc2)C1 (stereo not given)
    3, 4
- Cc1cccc(NC(=O)N2CCC3(CC2)C(=O)N(CC(=O)N2CCOCC2)CN3c2ccccc2)c1
    4, 15
- O=c1c(Cl)c(Cl)cnn1CCOc1ccccc1
    2, -3
- CCCCNC(=O)c1ccc2nc(C)c(N(C)C(=O)C(CC)CC)n2c1
    1, 14
- O=C(OCCO)c1cc(-c2ccccc2Cl)nc2ccccc12
    -4, -5
- C=CCn1c(-c2ccccc2)csc1=Nc1cccc([N+](=O)[O-])c1
    26, 11
- CN1CC2(CCCN(C(=O)c3csc4c3CCCC4)CC2)OC1=O (stereo not given)
    6, 3
- CC1OC(C)C2Cc3ccccc3C2O1 (stereo not given)
    3, 1
- CCC(C(=O)Nc1cc(C)on1)N1CCN(c2ccccc2)CC1 (stereo not given)
    7, 7
- CCOC(=O)c1c(C)[nH]c(C(=O)C(C)OC(=O)C2(CC(=O)NC(C)(C)C)CCCC2)c1C (stereo not given)
    -4, -3
- CCCCCCc1ccc(C(=O)Nc2ccc(N3CCN(Cc4ccccc4)CC3)c(C(=O)NCCN3CCOCC3)c2)cc1
    11, 10
- CCc1ccc(C(=O)N2C(C(=O)NCc3ccc4c(c3)OCO4)COC23CCCCC3)cc1 (stereo not given)
    10, 23
- CCOc1ccc(Oc2ccc(NC(=O)c3ccc(C)s3)cc2)cc1
    0, -1
- O=C(CN1C(=O)NC2(CCCc3sccc32)C1=O)N1CCN(C(=O)c2ccco2)CC1 (stereo not given)
    -5, -1
- Cc1ccccc1C(=O)N1C(C(=O)NC(C)c2ccccc2)COC12CCN(C(=O)c1ccc(Cl)cc1)CC2 (stereo not given)
    -2, -1
- O=C(CCn1c(=O)oc2ccccc21)OCCCn1c(=O)[nH]c2ccccc21
    2, 11
- CCCCC(=O)N(C)c1c(C)nc2ccc(C(=O)NCCN3CCCC3)cn12
    6, -6
- COc1cc(Cn2nc(C)cc2C)ccc1SC
    9, 3
- CN1N=C(c2ccc(Cl)cc2)CSC1=NCc1ccccc1
    -1, -6
- O=C(Cc1cccs1)N1CCc2ccccc2C1c1ccccc1F (stereo not given)
    2, 11
- C=CCOC(=O)C1=C(C)N(CC)C(=O)NC1c1ccc(Br)cc1 (stereo not given)
    -3, -7
- NCC1CCN(c2nc(Cc3ccccc3)ns2)CC1
    9, 11
- O=S(=O)(CCN1CCCC1c1ccc(O)cc1)c1ccc(Cl)cc1 (stereo not given)
    6, 2
- c1ccc(Cn2c(CSc3nc4ccccc4[nH]3)nc3ccccc32)cc1
    -2, -2
- CCCCCN(CC(=O)N1CCc2sccc2C1c1ccc(Cl)cc1Cl)C(=O)c1ccc2c(c1)OCO2 (stereo not given)
    -1, 10
- C=CCN1C(=O)/C(=C\c2ccc(OC)cc2OC)SC1=S
    0, -6
- COc1ccccc1CC(=O)N1CCOC(COc2cccc(C(F)(F)F)c2)C1 (stereo not given)
    -6, -10
- O=C(Nc1ccc(Oc2ccccc2)nc1)C1CCN(C(=O)c2ccncc2)CC1
    1&-3, -1&-2
- CCOC(=O)C1CCCN(C(=O)c2coc(CN(Cc3ccc(C(F)(F)F)cc3)Cc3ccc4c(c3)OCO4)n2)C1 (stereo not given)
    20, 28
- O=c1c(Cl)c(NC2CCN(Cc3cccc(C(F)(F)F)c3)CC2)cnn1-c1ccccc1
    -3, 853
- CN(Cc1ccc(N2CCOCC2)cc1)Cn1c(=O)oc2cc(Cl)ccc21
    4, 1
- O=C(CSc1ccc(-c2ccc(-n3cccn3)cc2)nn1)N1CCCCC1
    -8, -12
- C=C(C)C(C)(C)C(=O)N1Cc2cnc(Cc3ccc(OC)cc3)nc2C1
    6, 6
- COc1cc(C(=O)NCCn2ncc3c(=O)n(Cc4ccc(F)cc4)cnc32)cc(OC)c1OC
    -5, -7
- O=[N+]([O-])c1ccc(Oc2ccc(-c3ccccc3)cc2)cc1
    21, 11
- Cc1ccc(-n2cc(CN3CCC[C@H]3C(N)=O)c(-c3cccc(C)c3)n2)cc1
    1, 1
- CCc1nc2c(OCc3ccc(F)c(F)c3)cccn2c1N(C)C(=O)C(C)C
    -19, -3
- COc1nc(N/N=C(/C)c2nonc2C)nc(N2CCOCC2)n1
    1, -11
